# Screens: PubChem BioAssay, Broad Institute
# Ecoli rRNA inh = inhibitors of bacterial rRNA selective over humanized ribosomes; E. coli WT GFP vs humanized-ribosome RFP mutants, fluorescence, 24 h; active compounds read low; DMSO median 0, no signal -100; GFP signal change (wild-type ribosome), % (test concentration not listed); 1.6% of 350,000 active;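 active means significant combined selectivity score with lowered wild-type GFP, culture density cut under 30%, mutant RFP and density less affected; inactive means any of these conditions unmet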; further: one replicate is shown; some compounds called inactive have numbers as strong as hits
# AF4-AF9 inh = inhibitors of human MLL-AF4/AF9 interaction | P42568 | AlphaScreen, biotin-AF4 peptide binding to FLAG-AF9 | inhibition, % at 10 µM | 0.47% of 350,000 active | AID 651704;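 active means every replicate reaching a set inhibition limit, whatever the replicate mean, cut at about 25% in these data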;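 further: 0% = plate neutral control median and 100% = total signal loss; the record names both 10 and 1 µM as test concentration; the first replicate is given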
# Target sequence (P42568 whole entry, looked up): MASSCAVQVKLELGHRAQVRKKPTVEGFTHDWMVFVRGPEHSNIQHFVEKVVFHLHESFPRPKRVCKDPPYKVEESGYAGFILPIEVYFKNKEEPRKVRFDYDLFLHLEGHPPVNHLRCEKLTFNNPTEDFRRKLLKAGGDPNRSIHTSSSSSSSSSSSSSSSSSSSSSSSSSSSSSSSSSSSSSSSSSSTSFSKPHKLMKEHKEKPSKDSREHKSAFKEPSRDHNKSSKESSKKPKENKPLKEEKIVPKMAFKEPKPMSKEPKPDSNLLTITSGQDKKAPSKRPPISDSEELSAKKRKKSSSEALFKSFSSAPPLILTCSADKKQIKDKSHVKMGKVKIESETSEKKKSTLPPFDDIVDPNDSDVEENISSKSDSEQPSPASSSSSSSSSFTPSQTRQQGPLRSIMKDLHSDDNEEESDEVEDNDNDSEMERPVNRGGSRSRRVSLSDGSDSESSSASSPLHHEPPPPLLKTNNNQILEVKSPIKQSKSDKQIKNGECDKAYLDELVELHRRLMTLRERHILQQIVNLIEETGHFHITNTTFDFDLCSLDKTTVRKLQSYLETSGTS
# Ecoli rRNA inh OD600 = recorded beside Ecoli rRNA inh, whose call it bears; OD600 change, %; measured here: OD600 growth;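 optical density of the mix in the first replicate; 0 = DMSO median and -100 = no signal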
# Ecoli rRNA inh RFP = recorded beside Ecoli rRNA inh, whose call it bears; RFP signal change, %; measured here: RFP humanized mutant strains;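 first replicate; 0 = DMSO median and -100 = no signal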
# The depositor's hits bear a star; & = joins results of further samples. Only part of the results is shown (hit frequency here may not be typical).
nr	SMILES	AF4-AF9 inh	Ecoli rRNA inh OD600	Ecoli rRNA inh RFP	Ecoli rRNA inh
1	C[C@H](CO)N1C[C@H](C)[C@H](CN(C)Cc2ccc(-c3ccccc3)cc2)Oc2ccc(NC(=O)c3ccncc3)cc2C1=O	7.9	-20.1	9.3	1.0
2	Cc1noc(C)c1S(=O)(=O)N(C)C[C@H]1OCc2cn(nn2)CCCC(=O)N([C@H](C)CO)C[C@@H]1C	-1.0&1.3	5.1&0.6	9.5&-3.2	1.2&0.5
3	C[C@@H](NC(=O)C[C@H]1CC[C@H](NC(=O)CN2CCOCC2)[C@H](CO)O1)c1ccccc1	1.6	-3.3	1.8	-2.1
4	C[C@H]1CN([C@@H](C)CO)C(=O)c2c(c3ccccc3n2C)-c2ccccc2CO[C@H]1CN(C)C(=O)NC1CCCCC1	-4.4	0.5	-1.4	-0.2
5	Cc1noc(C)c1NC(=O)Nc1cccc2c1O[C@H](CN(C)S(C)(=O)=O)[C@@H](C)CN([C@@H](C)CO)C2=O	-0.6	3.2	-1.5	3.2
6	CCCNC(=O)c1cc2c(c(-c3cccc(-c4cc5ccccc5o4)c3)n1)[C@@H](CCO)N(C(=O)NC(C)C)C2	0.1&-1.4	2.7&14.9	0.1&0.5	-1.9&3.9
7	C[C@@H]1CN([C@@H](C)CO)C(=O)Cc2cc(NC(=O)CCCCCC(=O)Nc3ccccc3N)ccc2O[C@H]1CN(C)CC1CC1	-5.3	7.3	-2.6	3.6
8	COCC(=O)N1[C@H](CO)[C@H](c2ccc(-c3ccccc3OC)cc2)C12CN(C(C)=O)C2	1.1	8.2	0.0	0.0
9	C[C@@H]1CN([C@H](C)CO)C(=O)c2cc(NC(=O)Cn3cnnn3)ccc2O[C@@H]1CN(C)S(=O)(=O)c1ccc(Cl)cc1	-13.1	1.6	-1.2	3.8
10	CC(=O)c1cccc(-c2ccc3c(c2)C(C)(Cc2ccccc2F)C(=O)N3)c1 (configuration not stated)	10.8	-14.4	4.5	7.6
11	O=C(Nc1ccc2c(c1)[C@@H]1C[C@H](CC(=O)N3CCOCC3)O[C@H](CO)[C@@H]1O2)c1cccnc1	-1.2	7.9	-0.6	2.4
12	O=C(c1ccccn1)N1CC2(C1)[C@@H](c1ccccc1)[C@@H](CO)N2Cc1ccc(F)cc1	1.3	10.9	1.3	-1.6
13	C[C@H](NC(=O)C[C@H]1CC[C@H](NC(=O)C2CCOCC2)[C@H](CO)O1)c1ccccc1	-2.5	6.6	-0.8	-0.9
14	C[C@H](CO)N1C[C@H](C)[C@H](CN(C)C(=O)c2ccccc2)Oc2cc(C#CC3CC3)ccc2S1(=O)=O	4.2	-7.7	5.0	-3.9
15	O=C(C[C@H]1C=C[C@@H](NC(=O)CN2CCOCC2)[C@@H](CO)O1)NC1CCC1	-3.5	-0.5	-0.9	0.4
16	Cc1ccc(S(=O)(=O)N2CCN(C(=O)CCC(=O)Nc3ccc(Br)c(C)c3)CC2)cc1	-10.8	-46.3	-3.2	-23.8
17	C/C=C/c1ccc([C@H]2[C@H](CO)N3CCCCN(C(=O)Nc4ccc(F)cc4)C[C@@H]23)cc1	1.8	-20.9	5.0	-12.4
18	CC(C)NC(=O)Nc1ccc2c(c1)C(=O)N([C@@H](C)CO)C[C@@H](C)[C@H](CN(C)CC1CC1)OCCCC[C@@H](C)O2	-1.8	0.0	-4.8	0.1
19	O=C1c2ccccc2C(c2nnnn2-c2ccc3c(c2)OCCO3)N1Cc1ccc2c(c1)OCO2 (configuration not stated)	1.8	-37.5	-12.7	-24.4
20	O=C(C[C@H]1CC[C@@H](NC(=O)C2CCOCC2)[C@@H](CO)O1)Nc1ccccc1	-2.3	2.6	-1.4	-1.0

# Look-ups from the list:
# Ecoli rRNA inh RFP, cpd 9 is entered as -1.2
# Ecoli rRNA inh OD600, cpd 14 is entered as -7.7
# Ecoli rRNA inh, cpd 20 is entered as -1.0
# Ecoli rRNA inh OD600, cpd 2 is entered as 5.1&0.6
# Ecoli rRNA inh, cpd 10 is entered as 7.6

# The results go on:
nr	SMILES	AF4-AF9 inh	Ecoli rRNA inh OD600	Ecoli rRNA inh RFP	Ecoli rRNA inh
21	O=C(Nc1ccc2c(c1)[C@@H]1C[C@H](CC(=O)N3CCCCC3)O[C@@H](CO)[C@@H]1O2)C1CCOCC1	-2.1	1.8	2.2	4.5
22	CC(C)c1cccc(-c2csc(C(C)(O)c3cccc(F)c3)n2)c1 (configuration not stated)	-5.0	-31.4	3.4	-10.9
23	CO[C@@H]1CN(C)C(=O)c2ccc(NC(=O)Nc3ccccc3F)cc2OC[C@H](C)N(Cc2ccccc2C(=O)O)C[C@H]1C	0.9	-4.6	-1.8	-3.0
24	Cc1noc(C)c1S(=O)(=O)Nc1ccc2c(c1)C(=O)N([C@H](C)CO)C[C@@H](C)[C@H](CN(C)Cc1ccc(C(=O)O)cc1)OCCCC[C@@H](C)O2	-12.4	9.9	0.1	2.0
25	Cc1ccc(S(=O)(=O)N(C)C[C@H]2Oc3ccc(NS(=O)(=O)c4cccs4)cc3C(=O)N([C@H](C)CO)C[C@H]2C)cc1	1.5	-8.6	-0.5	-4.9
26	CCC(=O)N1[C@H](C(=O)NC2CCCC2)[C@@H](CO)[C@@H]2Cn3c(cccc3=O)[C@@H]21	-19.3	12.6	-1.1	1.8
27	O=C(N[C@@H]1CC[C@H](CCNC(=O)c2ccccc2F)O[C@H]1CO)c1cnccn1	-2.6	1.3	-0.5	0.2
28	C[C@@H]1CCCCO[C@@H](CN(C)C(=O)NC2CCCCC2)[C@H](C)CN([C@H](C)CO)C(=O)c2cc(NC(=O)NC3CCCCC3)ccc2O1	-1.6	-1.1	0.8	3.4
29	C[C@H](CO)N1C[C@H](C)[C@H](CN(C)C)Oc2ccc(NS(C)(=O)=O)cc2CC1=O	-2.5	6.5	-0.6	2.6
30	O=C(C1CCOCC1)N1[C@@H]2CNc3ccccc3[C@@H]2[C@@H]1CO	-17.5	1.6	-1.6	0.8
31	C[C@@H]1CN([C@H](C)CO)C(=O)c2cc(C#CC3CCCC3)cnc2O[C@H]1CN(C)C(=O)C1CCCCC1	1.5	-8.5	-0.6	0.2
32	CS(=O)(=O)Nc1ccc(Br)cc1	-1.4	23.7	1.7	12.5
33	CC(=O)N1CC(=O)N2[C@H](C1)[C@@H](c1ccc(-c3ccc(C)cc3)cc1)[C@@H]2CO	-2.1	16.6	-6.2	0.8
34	CCS(=O)(=O)N1CCC2(CC1)CN(Cc1ccccc1OC)[C@H](CO)c1c2c2ccc(OC)cc2n1C	0.2	-17.4	-1.8	2.8
35	C=CCn1c(SCC(=O)N(CC)c2c(N)n(Cc3ccccc3)c(=O)[nH]c2=O)nnc1-c1ccccc1OC	0.4	4.1	0.7	8.9
36	COc1ccc(S(=O)(=O)Nc2ccc3c(c2)C(=O)N([C@@H](C)CO)C[C@H](C)[C@@H](CN(C)Cc2ccc(C(=O)O)cc2)OCCCC[C@H](C)O3)cc1	-11.6	0.8	-1.4	-1.0
37	C[C@@H]1CN([C@@H](C)CO)S(=O)(=O)c2ccc(C#CC3CC3)cc2O[C@H]1CN(C)Cc1ccccc1	4.0	-6.2	0.8	-3.0
38	COc1ccc(N2CCN(C(=O)c3ccc(Cl)c(S(=O)(=O)N4CCOCC4)c3)CC2)cc1	4.0	-5.9	10.9	-5.5
39	C[C@H](CO)N1C[C@H](C)[C@@H](CN(C)C(=O)CN(C)C)Oc2cc(C#Cc3ccccc3)ccc2S1(=O)=O	16.8	-2.2	4.3	0.0
40	O=C(C[C@@H]1CC[C@H](NC(=O)c2cccc(F)c2)[C@@H](CO)O1)Nc1nccs1	-0.6	2.8	-0.8	-0.1
41	C[C@@H]1CN([C@@H](C)CO)C(=O)c2cc(NC(=O)CCN3CCOCC3)ccc2O[C@H]1CN(C)S(=O)(=O)c1ccc(F)cc1	-2.0	-2.7	1.8	0.5
42	C[C@H]1CN([C@@H](C)CO)C(=O)c2cc(NC(=O)CCN3CCOCC3)ccc2O[C@H]1CN(C)Cc1ccncc1	-1.4	1.6	-2.3	1.1
43	COc1ccc(S(=O)(=O)N(C)C[C@H]2OCc3cnnn3CCCC(=O)N([C@H](C)CO)C[C@@H]2C)cc1	-1.8&2.7&0.6	26.2&-3.8	14.7&-0.3	7.0&-4.0
44	C[C@@H]1CN([C@H](C)CO)C(=O)Cc2cc(NC(=O)c3ccncc3)ccc2O[C@H]1CN(C)Cc1ccc(-c2ccccc2)cc1	2.1	-10.3	14.1	-3.4
45	O=C(Cc1ccccc1)N[C@@H]1CC[C@H](CC(=O)N2CCOCC2)O[C@H]1CO	-13.5	7.0	0.9	1.1
46	C/C=C/c1ccc([C@H]2[C@H](CO)N3CCCCN(S(=O)(=O)c4ccc(F)cc4)C[C@@H]23)cc1	5.1	-72.0	-6.8	-55.2
47	O=C(C[C@@H]1CC[C@H]2[C@@H](COC[C@@H](O)CN2CC2CCOCC2)O1)NCC1CC1	-1.2	4.3	-3.3	-0.3
48	CO[C@H]1CN(C)C(=O)c2cc(NC(=O)C3CCC3)ccc2OC[C@@H](C)N(Cc2ccncc2)C[C@@H]1C	-2.2	1.3	-0.9	0.2
49	COc1ccc(NC(=O)N(C)C[C@H]2Oc3ccc(NC(=O)NC(C)C)cc3C(=O)N([C@H](C)CO)C[C@H]2C)cc1	-2.3	8.6	-0.8	5.3
50	CC(C)[C@@H]1Cc2[nH]c(=O)[nH]c(=O)c2[C@H](c2ccc(F)cc2)O1	-0.8	16.2	4.3	23.7
51	O=C1[C@H](Cc2ccccc2)NCC=CC[C@H](c2ccco2)N1Cc1ccccc1	8.7	-61.2	-3.3	-35.1
52	COc1cccc(-c2cnc3c(c2)C(=O)N([C@@H](C)CO)C[C@@H](C)[C@@H](CN(C)Cc2ccccc2)O3)c1	-0.8	5.4	-1.3	0.0
53	COc1ccc(CN(C)C[C@H]2OCCCC[C@H](C)Oc3ccc(NC(=O)Nc4ccc(OC)cc4)cc3C(=O)N([C@H](C)CO)C[C@H]2C)cc1	1.0	-24.2	28.9	-4.9
54	COc1ccc(S(=O)(=O)N(C)C[C@H]2Oc3c(NC(=O)C4CCOCC4)cccc3C(=O)N([C@H](C)CO)C[C@H]2C)cc1	-4.2	1.3	-1.3	-1.6
55	O=C(C1CCOCC1)N1[C@H](CO)[C@H]2c3ccccc3NC[C@H]21	-16.8	7.2	-1.4	2.4
56	CC(=O)N1CCC(C(=O)N2c3ccccc3N=C(c3ccc(C(F)(F)F)cc3)C2C(=O)NC(C)(C)C)CC1 (configuration not stated)	-5.5	17.8	1.8	2.7
57	C[C@@H]1CN([C@@H](C)CO)C(=O)c2cccc(NC(=O)Nc3ccccc3)c2O[C@@H]1CN(C)S(=O)(=O)c1cn(C)cn1	-1.1	3.2	-2.9	3.3
58	Cc1cccc(-c2ccc([C@H]3[C@@H](CO)N4CCCCN(C(=O)c5ccncc5)C[C@H]34)cc2)c1	-0.5	-8.5	6.7	-2.4
59	O=C(NC1CCCC1)[C@@H]1N[C@@H]2c3ccc(-c4cccc(F)c4)c(=O)n3C[C@@H]2[C@H]1CO	-0.4	21.8	-5.0	1.0
60	COc1ccc(NC(=O)N2CCC3(CC2)CN(CC2CC2)[C@H](CO)c2c3c3ccc(OC)cc3n2C)cc1	-0.5	8.3	2.4	-1.5
61	O=C(CC(F)(F)F)N1C[C@H]2[C@@H](c3ccccc31)[C@H](CO)N2C(=O)Cc1cccnc1	1.5	-2.4	-0.5	1.6
62	C[C@H](CO)N1C[C@H](C)[C@@H](CN(C)Cc2ccc(C(F)(F)F)cc2)OCCCC[C@H](C)Oc2ccc(NC(=O)NC3CCCCC3)cc2C1=O	-2.3	-5.0	3.1	0.7
63	CCCNC(=O)N(C)C[C@@H]1Oc2ncc(C#C[C@@H](C)O)cc2C(=O)N([C@H](C)CO)C[C@@H]1C	-2.7	9.4	-0.1	3.0
64	C[C@@H]1CN([C@@H](C)CO)C(=O)c2cc(NS(=O)(=O)c3ccc(Cl)cc3)ccc2O[C@H]1CN(C)CC1CCCCC1	2.6	-0.4	2.2	-3.4
65	C[C@H]1CCCCO[C@H](CN(C)C(=O)c2ccncc2)[C@@H](C)CN([C@@H](C)CO)C(=O)c2cc(NS(=O)(=O)c3ccccc3)ccc2O1	-2.0	-1.6	-0.3	-2.1
66	O=C(C[C@H]1CC[C@@H]2[C@H](COC[C@H](O)CN2Cc2ccncc2)O1)NCc1ccccc1Cl	-0.9	5.3	0.8	1.0
67	C[C@@H]1CN([C@H](C)CO)C(=O)c2cc(C3=CCCC3)cnc2O[C@@H]1CN(C)C(=O)Nc1cccc(F)c1	1.6	2.6	-0.1	-1.6

# Arranged by value in Ecoli rRNA inh RFP (lowest first): 4 from the list above
nr	SMILES	AF4-AF9 inh	Ecoli rRNA inh OD600	Ecoli rRNA inh RFP	Ecoli rRNA inh
63	CCCNC(=O)N(C)C[C@@H]1Oc2ncc(C#C[C@@H](C)O)cc2C(=O)N([C@H](C)CO)C[C@@H]1C	-2.7	9.4	-0.1	3.0
66	O=C(C[C@H]1CC[C@@H]2[C@H](COC[C@H](O)CN2Cc2ccncc2)O1)NCc1ccccc1Cl	-0.9	5.3	0.8	1.0
64	C[C@@H]1CN([C@@H](C)CO)C(=O)c2cc(NS(=O)(=O)c3ccc(Cl)cc3)ccc2O[C@H]1CN(C)CC1CCCCC1	2.6	-0.4	2.2	-3.4
62	C[C@H](CO)N1C[C@H](C)[C@@H](CN(C)Cc2ccc(C(F)(F)F)cc2)OCCCC[C@H](C)Oc2ccc(NC(=O)NC3CCCCC3)cc2C1=O	-2.3	-5.0	3.1	0.7
